Source: PubChem
Rce1 inh: yeast Ras-converting enzyme inhibition | Q03530 | yeast membranes, quenched prenylated peptide cleavage fluorescence | calls only | 290,000 tested, 0.27% active;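 active = fall in fluorescence gain of 50% or more versus controls, with final raw signal at or below 3038400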;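 note: plate controls were neutral control wells for no effect and wells lacking membranes for full effect; tested at 10 µM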
Target sequence (Q03530 whole entry, looked up): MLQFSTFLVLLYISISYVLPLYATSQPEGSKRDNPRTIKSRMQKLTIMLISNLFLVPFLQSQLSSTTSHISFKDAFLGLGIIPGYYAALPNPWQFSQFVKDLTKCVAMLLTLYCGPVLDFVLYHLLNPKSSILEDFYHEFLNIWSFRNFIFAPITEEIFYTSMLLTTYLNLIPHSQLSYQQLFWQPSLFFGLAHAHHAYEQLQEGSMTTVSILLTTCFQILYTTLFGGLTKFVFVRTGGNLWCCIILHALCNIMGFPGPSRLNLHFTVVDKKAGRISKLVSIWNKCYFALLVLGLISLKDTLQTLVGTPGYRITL
Env fusion inh: inhibitors of HIV Env-mediated cell fusion; HeLa-JRFL Env/CEM21 cell fusion, luciferase; inhibition, % at 12.3 µM; 360,000 tested, 1.1% active;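 active = mean replicate inhibition score of at least 50 and every replicate individually at or above 50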;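 note: 0% = plate neutral controls and 100% = maraviroc near 300 nM; one replicate is shown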
CSC inhib: cancer stem cell inhibition | 300,000 tested, 1.1% active | inhibition, % at 7.5 µM | cancer stem cell-like cells viability, luminescence;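 active = mean at 75% or more and at least half the replicates too; tested in HMLE shEcad cells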;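 note: 0% = median of negative and 100% = median of positive control wells; the first replicate is given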
MT1-MMP act inh: MT1-MMP (human) activation inhibition; P50281; HT1080 RFP-PRO-GFP cells, GFP/RFP ratio fluorescence, overnight; percent of plate control window, DMSO zero; GFP/RFP ratio change, % at 20 µM; 360,000 tested, 0.061% active; AID 651647;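 active = GFP/RFP ratio change of at least 30% with cell ATP level not reduced by more than half and red fluorescence within 50% of control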; note: strong numbers were not always called active
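Assay system: HT1080 cells carrying an RFP-PRO-GFP reporter | Dosing: Single dose of 20 µM compound, 1% DMSO final | Incubation: Cells overnight before dosing, compound overnight, 37 °C, 5% CO2 | Evaluation: GFP/RFP fluorescence ratio | Control set: DMSO and RFP-L50D-GFP cell wells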
Yeast UUG start: alters start codon recognition fidelity in yeast | S. cerevisiae UUG-firefly luciferase reporter, luminescence/redox ratio | activity score, % at 18.7 µM | 350,000 tested, 0.13% active;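 active = replicate mean at a twofold rise or more, about +100% in these data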;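 note: firefly luciferase made from a UUG start codon reports start codon fidelity; reporter light over untreated wells divided by growth signal over untreated wells; some hits fall short of that in this replicate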
PABP polyA inh: PABP-poly(A) binding inhibition | AID 2014 | PABP-poly(A) RNA binding, fluorescence polarization | 290,000 tested, 1% active | inhibition, % at 35 µM;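 active = 50% or more with normal probe brightness, or confirmed in later tests; about a fifth of its hits are not listed in these tables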;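 note: calls also rest on retests at 20 µM and on dose response follow-up; controls were probe without protein and protein plus probe with vehicle; some compounds called inactive have numbers as strong as hits; many hits fall short of the cut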
eIF4H inh: inhibitors of RNA binding by human eIF4H | eIF4H fluorescence polarization binding assay | 290,000 tested, 0.94% active | inhibition, % at 35 µM | AID 2012;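 active = 50% or more with normal probe brightness, or confirmed in later tests; about a fifth of its hits are not listed in these tables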;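 note: calls also rest on retests at 20 µM and on dose response follow-up; 0% = protein and probe with vehicle and 100% = probe without protein; strong numbers were not always called active; many hits fall short of the cut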
eIF4H inh retest: also measured in eIF4H inh; calls as there; inhibition, %; compound at 20 µM; confirmation average;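 mean of two retest wells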
PABP polyA inh retest: second read-out of PABP polyA inh, no call of its own (marks repeat the call); inhibition, %; compound at 20 µM; confirmation repeats;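 mean of two retest wells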
MT1-MMP act inh RFP: recorded beside MT1-MMP act inh, whose call it bears; RFP signal change, %; measured here: RFP expression control read;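 0 = vehicle wells; hits needed this value within 50% of zero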
Starred values were filed as active, the others as inactive; i = inactive; · = no result given; & = joins results of further samples. A portion of the library. The share of hits here may be higher or lower than overall.

SMILES	Rce1 inh	Env fusion inh	CSC inhib	MT1-MMP act inh	MT1-MMP act inh RFP	Yeast UUG start	PABP polyA inh	eIF4H inh	others
CCOc1ccc(CCN2C(=S)N([C@@H](Cc3ccc(O)cc3)CN3CCCC3CN3C(=S)NC[C@@H]3Cc3ccc(O)cc3)C[C@@H]2CC(C)C)cc1 (stereo partly drawn)	·	-91	·	-8	-14	-13	·	·
Nc1nc2n(n1)C1(CCCCC1)C1=C(CCCC1)N2	i	·	-2	·	·	·	6	11
CC1(C)CC(=O)c2cnc(NC(=O)Cc3ccc(Cl)cc3)nc2C1	i	·	-24	1	1	-17	2	-3
Cc1cc(-c2nnc(CCC(=O)NCc3cccc(C(F)(F)F)c3)o2)no1	i	-15	9	0	5	-10	37	-10
OCCC1CN(Cc2cccn2-c2cccnc2)CCN1C1CCCC1 (stereo not drawn)	i	9	·	9	8	·	1	9
CC1(c2ccccc2)NC(=O)N(CC(=O)Nc2cccc(/C=C/c3ccccn3)c2)C1=O (stereo not drawn)	i	-316	16	7	1	-7	·	·
CCOc1ccccc1-n1c(SC(C)C(=O)NCC2CCCO2)nc2ccccc2c1=O (stereo not drawn)	·	46	·	1	2	-13	·	·
CC(=O)c1ccc(-n2nncc2C(C)(C)C)cc1	i	·	6	-2	1	·	6	-4
Cc1cccc(C)c1NC(=O)COC(=O)c1cc(=O)[nH]c2ccccc12	·	·	0	2	3	-15	·	·
COc1ccccc1C1c2ccc3ccccc3c2Oc2ncn(CCCO)c(=N)c21 (stereo not drawn)	i	·	17	-2	-2	0	1	3
CC1(CO)COC2(OC1)C(=O)Nc1ccccc12 (stereo not drawn)	·	12	·	3	2	16	·	·
Cc1ccc(C(=O)c2coc3ccc(O)cc23)cc1	i	-122	5	-3	-8	-39	7	0
Cc1ccc(C)c(NC(=O)CN2C(=O)CC(C)S(=O)(=O)c3ccccc32)c1 (stereo not drawn)	i	-3	-5	-1	-1	-18	9	3
Cc1ccnc(NC(=O)c2cc(S(=O)(=O)N3CCCCC3)ccc2Cl)c1	i	-42	-13	7	3	·	-2	2
CC(C)(C)Cc1nnc(NS(=O)(=O)Cc2ccccc2)s1	·	·	6	1	9	-4	8	5
COc1ccc(S(=O)(=O)Nc2ccc3c(c2)CC(=O)N([C@@H](C)CO)C[C@@H](C)[C@@H](CN(C)Cc2ccccc2)O3)cc1	·	-14	-7	-1	-5	-26&67	·	·
COc1ccccc1C(C(=O)NCc1ccccc1)N(C(=O)c1csnn1)C1CC1 (stereo not drawn)	i	5	3	2	-2	-14	1	19
O=C(NCC(=O)N(CC1CCCO1)C(C(=O)NC1CCCCC1)c1ccccc1)c1cccs1 (stereo not drawn)	i	·	-27	10	0	-7	-3	-14
Cc1cc(=O)[nH]c(SCC(=O)NC(C)C2CC3CCC2C3)c1C#N (stereo not drawn)	i	-4	1	-3	-8	·	79*	3.3*	eIF4H inh retest=87*;PABP polyA inh retest=66*
C=CCOc1c(Cl)cc(CNc2nccs2)cc1OC	i	-5	-6	0	2	-11	-2	3
CCOC(=O)Cn1nc(C)c(NC(=O)c2ccc(Br)o2)c1C	i	1	·	4	4	-8	2	2
Cc1ccc(S(=O)(=O)N2CCCCC2)cc1C(=O)N1CCN(c2ccccn2)CC1	i	10	-18	3	0	-13	6	6
CCc1nc2c(OCC(=O)C(C)(C)C)cccn2c1N(C)C(=O)COc1ccccc1	·	-6	·	-5	1	-4	·	·
c1cc(-c2ccc(N3CCOCC3)cc2)n2cnnc2c1	·	-34	·	5	6	-17	·	·
Cc1cc(C)c2c(n1)sc1c(N3CCN(C)CC3)ncnc12	i	-17	-7	-1	-3	·	15	-4
Cc1ccc(/C=N/N2CCN(Cc3cccc4ccccc34)CC2)s1	i	15	20	1	-2	·	·	·
CCn1c(SCC(=O)Nc2nc(-c3ccccc3)cs2)nnc1-c1ccccc1	i	38	28	-4	-11	-12	-13	-9
Cc1ccc(C(=O)NCC(=O)N2CCN(c3cccc(Cl)c3)CC2)s1	·	25	-3	-3	-5	-11	·	·
O=C(NC1CCN(Cc2ccccc2)CC1)c1cc(S(=O)(=O)Nc2ccc(F)cc2)ccc1Cl	·	-32	·	2	-7	-3	·	·
CC(/C=C1\SC(=S)N(CCCC(=O)Nc2ccc(C(=O)O)cc2)C1=O)=C\c1ccccc1	i	-6	·	-1	-11	2	-4	42
Cn1nc(C(=O)NC2CCCCC2)c2c1-c1ccccc1SC2	i	18	0	10	-5	-18	4	0
CCCCC[C@@H](O)c1cc2ccccc2c(=O)o1	·	-12	-8	1	-1	-9	·	·
CCCCCN(C(=O)CCC(=O)OCc1ccccc1F)c1c(N)n(CCCC)c(=O)[nH]c1=O	i	·	-14	0	-5	-22	·	·
O=C(O)C1CC1C(=O)Nc1cc(F)ccc1F (stereo not drawn)	i	4	-3	2	7	·	15	30
Cc1cccc(C(=O)NCC(=O)NCC(c2cccs2)N2CCOCC2)c1 (stereo not drawn)	i	-8	·	-2	-2	·	·	·
CC1CCN(C(=O)C2CCC(=O)N(Cc3ccc(Cl)cc3)C2)CC1 (stereo not drawn)	i	9	-11	2	1	-2	14	4
Clc1ccc(Sc2ccccn2)cc1	i	-57	0	-2	1	-11	7	2
Cn1c(N)c(C(C[N+](=O)[O-])c2c(F)cccc2Cl)c(=O)n(C)c1=O (stereo not drawn)	i	-12	·	-1	0	-16	2	1
Cc1ccc(N2C(=O)CS(=O)C(c3ccccc3)C2=O)cc1C (stereo not drawn)	i	-18	-16	0	4	·	8	-6
Oc1ccc2c(c1)c1c3n2CCNC3CCC1 (stereo not drawn)	i	·	-6	4	3	-16	0	5

Four entries drawn at random from the list so far:
SMILES	Rce1 inh	Env fusion inh	CSC inhib	MT1-MMP act inh	MT1-MMP act inh RFP	Yeast UUG start	PABP polyA inh	eIF4H inh	others
CCc1nc2c(OCC(=O)C(C)(C)C)cccn2c1N(C)C(=O)COc1ccccc1	·	-6	·	-5	1	-4	·	·
CCn1c(SCC(=O)Nc2nc(-c3ccccc3)cs2)nnc1-c1ccccc1	i	38	28	-4	-11	-12	-13	-9
Cn1nc(C(=O)NC2CCCCC2)c2c1-c1ccccc1SC2	i	18	0	10	-5	-18	4	0
CCCCCN(C(=O)CCC(=O)OCc1ccccc1F)c1c(N)n(CCCC)c(=O)[nH]c1=O	i	·	-14	0	-5	-22	·	·

Going on with the list.
SMILES	Rce1 inh	Env fusion inh	CSC inhib	MT1-MMP act inh	MT1-MMP act inh RFP	Yeast UUG start	PABP polyA inh	eIF4H inh	others
C=C(C)CC1N(c2cccc(OC)c2)C(=O)C2C(C(=O)O)C3C=CC21O3 (stereo not drawn)	i	-1	-17	1	4	-2	-14	5
OCC(Cc1ccccc1)Nc1c2ccccc2nc2ccccc12 (stereo not drawn)	i	-126	3	0	4	·	-4	1
CN(Cc1c(C(=O)N/N=C/c2c(F)cccc2Cl)nnn1-c1nonc1N)c1ccccc1	i	8	-4	2	0	-5	0	-16
COc1ccc(C(=O)NC(=S)Nc2cccc3nc(C)ccc23)cc1OC	i	15	-12	2	-8	-24	-7	-2
CN(C)S(=O)(=O)c1cccc(N2C(=O)CC3(CCCCC3)CC2=O)c1	i	1	2	4	-7	·	4	-2
Cc1cccc(NC(=O)CNC(=O)COC(=O)C2CC2C)c1C (stereo not drawn)	·	·	-2	5	1	-16	·	·
Cn1nc(C(=O)OCC(=O)NCc2ccc(Cl)cc2Cl)c2ccccc2c1=O	·	10	·	0	0	-13	·	·
CCOC(=O)N1CCC(NC(=O)C2CCCN(c3nc4ccccc4o3)C2)CC1 (stereo not drawn)	i	-3	-11	0	0	-7	-2	-2
Cc1ccc(CCNS(=O)(=O)c2cc3c(cc2Cl)NC(=O)CO3)cc1	i	-5	6	3	0	-12	1	-15
CCCCN(C)CCNC(=O)CN1C(=O)CSc2ccc(S(=O)(=O)N3CCOCC3)cc21	i	5	-3	2	4	1	·	·
COc1cc(CC(=O)O)ccc1O	i	8	-3	1	2	-15	-5	-9
CN(c1ccccc1)S(=O)(=O)c1cc(C(=O)OCC(=O)N2CCN(C(=O)c3ccco3)CC2)ccc1Cl	i	6	·	-2	-12	·	6	-5
COc1ccccc1NC(=O)c1ccccc1NC(=O)c1ccccc1C(=O)O	i	-74	5	-1	-2	-4	3	-1
COc1ccccc1C(=O)NNC(=O)c1nn(Cc2ccccc2)c(=O)c2ccccc12	i	-7	3	-1	-2	·	18	8
COc1ccc(C(=O)Nc2ccnn2C2CCN(Cc3cn(C)nc3C)CC2)cc1	i	1	-8	-1	3	-8	12	-6
COc1ccc(Cc2nc3ccccc3c(=O)n2N)cc1OC	i	3	-9	2	-2	·	·	·
CCOC(=O)N1CCC(Nc2nc3ccccc3n3cnnc23)CC1	i	-5	1	0	2	-15	·	·
CC(=O)c1sc(NC(=O)CCCc2nc3ccccc3c(=O)[nH]2)nc1-c1ccccc1	·	·	-10	-10	-8	-9	·	·
O=C1CNC(=S)N1c1nc(-c2ccccc2)cs1	i	-57	8	1	1	·	-6	-3
CS(=O)(=O)N(CC(=O)Nc1ccc(C(N)=O)cc1)C1CCCCC1	i	-120	-2	0	5	-15	-6	15
O=C(COC(=O)CCSc1ccc(Cl)cc1)NCc1ccc(Cl)cc1	i	-2	·	3	10	-8	2	-3
COc1ccc(NC(=O)CN(C)C(=O)CN2C(=O)C3CCCCC3C2=O)cc1 (stereo not drawn)	i	-13	-14	3	-1	13	·	·
CCOc1ccccc1NC(=O)COc1ccc(S(=O)(=O)N2CCCC2)cc1	i	13	-3	1	-3	-30	7	2
CCCCN1CC(O)=C(c2nc(-c3ccc(Cl)cc3)cs2)C1=N	i	-20	7	3	-2	·	6	24
CCOC(=O)C1CN(S(=O)(=O)c2ccc(OC)cc2)c2cc(S(=O)(=O)CC)ccc2O1 (stereo not drawn)	i	-178	-18	1	3	4	-9	-8
O=C(Nc1ccccc1C(F)(F)F)NC1(C(=O)N2CCOCC2)CCCCC1	·	-17	·	3	4	-2	·	·
O=C(CCc1nc2sc3c(c2c(=O)[nH]1)CCCC3)NCC(=O)Nc1ccccc1Br	·	-10	·	-6	2	-11	·	·
CCc1ccccc1OCCCCN1CCCCC1	i	-1	8	4	5	4	1	7
Cc1ccccc1NC(=O)Cc1nc(CN(C)CC(=O)Nc2cccc(F)c2)cs1	·	2	·	2	-2	-13	·	·
CCN(CC)C(=O)C1CCCc2c1[nH]c1ccc(Cl)cc21 (stereo not drawn)	i	-52	9	2	2	-15	-4	-7
Cc1ccc(NC(C(=O)c2ccccc2)c2ccccc2)cc1 (stereo not drawn)	·	1	·	7	0	-2	·	·
Nc1[nH]c(N=NC(=O)c2ccccc2O)c2ccccc12	i	-62	-3	8	9	-19	-5	5
Cc1cc(C)n(-c2cc(-n3nc(C)cc3C)ncn2)n1	i	-45	-17	-1	4	·	-12	-5
CC(=O)NCCc1nc2cc(NC(=O)COc3ccc(C)cc3)ccc2n1C	i	3	-19	1	3	-3	2	7
CC(=O)NC(Cc1ccccc1C)C(=O)NC1CCN(c2ncccc2[N+](=O)[O-])CC1 (stereo not drawn)	i	0	-4	·	·	·	13	3
Cc1ccc(OCCNC(=O)c2cccc(Oc3ccc(C(F)(F)F)cc3[N+](=O)[O-])c2)cc1	i	17	54	2	-7	·	3	-4
COc1ccccc1CC(=O)Nc1ccc(S(=O)(=O)N2CCCC2)cc1	·	-13	-10	0	2	-11	0	1
O=C(CSc1nnc(SCc2cccc3ccccc23)s1)N=Nc1c(O)[nH]c2ccccc12	·	·	38	·	·	·	2	14
Cc1ccc[n+](CC(=O)Nc2ccc([N+](=O)[O-])cc2)c1	i	-17	2	2	2	-11	-4	-9
